# CBX7 inh – CBX7 chromodomain binding inhibitors, primary screen, biochemical, AlphaScreen; Chromobox protein homolog 7 (Homo sapiens), O95931; AlphaScreen His6-CBX7 / biotin-H3K27me3 peptide binding; hits give low values; normalised signal (fraction of DMSO) (no concentration beside the values); 66,000 tested, 1.1% active; in the data active = normalised signal below about 0.5;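 note: 100 nL library stock added to about 20 µL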
# Target sequence (O95931 whole entry, looked up): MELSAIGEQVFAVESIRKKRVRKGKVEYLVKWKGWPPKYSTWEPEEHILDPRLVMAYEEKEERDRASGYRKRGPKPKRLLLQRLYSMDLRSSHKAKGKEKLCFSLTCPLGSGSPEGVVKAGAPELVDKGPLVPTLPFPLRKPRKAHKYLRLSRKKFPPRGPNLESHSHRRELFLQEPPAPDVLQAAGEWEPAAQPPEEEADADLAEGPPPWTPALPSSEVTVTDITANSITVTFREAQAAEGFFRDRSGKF
# CBX7 inh z-score – further read-out of CBX7 inh, marked with its call; z-score; measured here: z-score of CBX7 signal; some inactives read as strong as hits; reference of the scale not given here;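 same signal on another scale; lower means less binding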
# The depositor's hits bear a star.
# Values in the order: CBX7 inh z-score | CBX7 inh
CCC(C)NC(=O)CC(C(=O)N1CCc2ccccc21)n1ccnc1 (configuration not stated)
    -0.00996 | 1
COC(CNC(=O)c1cc2c(s1)CS(=O)(=O)C2)OC
    -2.08 | 0.838
COc1ccc(NC(=O)c2ccc(-c3nn(C)c(=O)c4ccccc34)cc2)cc1C(N)=O
    0.433 | 1.01
CCc1cccc(NC(=O)C2CCN(S(=O)(=O)c3ccc4c(c3)CCC(=O)N4)CC2)c1
    -0.384 | 0.985
O=C1Nc2ccccc2Oc2cc([N+](=O)[O-])cc(OCCO)c21
    -0.908 | 0.934
Cc1cccn2c(Nc3ccc4c(c3)OCCO4)c(-c3cccc(Cl)c3)nc12
    -2.49 | 0.76
O=C(NC1CCCCCC1)c1cn(-c2ccc(Cl)cc2)c(=O)c2ccccc12
    -0.943 | 0.931
COc1ccc(OCCn2c(-c3ccc(Cl)cc3)nc3ccccc3c2=O)cc1
    5.69 | 1.45
CCOc1ccc(CN2C(=O)CCC2(C)C(=O)NC(C)CC)cc1 (configuration not stated)
    -2.16 | 0.868
CN(C)c1nc(-c2ccccc2)c2cc(Br)ccc2n1
    0.831 | 1.21
CC(=O)N1C(=O)CC(C)N(C(C)=O)c2ccc([N+](=O)[O-])cc21 (configuration not stated)
    2.73 | 1.38
Cn1c(C(=O)O)c(CC(=O)Nc2ccc(F)c(Cl)c2)c2ccccc21
    -0.0985 | 0.901
COCCNC(=O)c1cc(-c2cccc(OC)c2)on1
    -1.34 | 0.883
O=C(Cn1nc(-c2ccc(Cl)cc2)c2ccccc2c1=O)N1CCCCC1
    -0.588 | 0.949
CCCCNS(=O)(=O)c1ccc2nc(-c3cccnc3)cc(C(=O)NCCC3=CCCCC3)c2c1
    -1.88 | 0.863
CC(=O)N1c2ccc(S(=O)(=O)N3CCN(c4cccc(C)c4C)CC3)cc2CC1C (configuration not stated)
    -1.04 | 0.743
CC(C)Sc1oc(-c2ccccc2)nc1S(=O)(=O)c1ccc(Cl)cc1
    0.927 | 1.02
Cc1ccc(CN2CC34C=CC(O3)C(C(=O)NCCc3ccc(Cl)cc3)C4C2=O)cc1 (configuration not stated)
    -1.36 | 0.971
O=C(NCC1CCCO1)c1ccc2c(c1)N(Cc1ccccc1)C(=O)CS2=O (configuration not stated)
    1.02 | 1.06
Cc1cc(N2CCOCC2)nc2ccc(NC(=O)Cc3cccc(C(F)(F)F)c3)cc12
    1.06 | 1.16

# Compound profiles (already shown). Values in the order: CBX7 inh z-score | CBX7 inh
# CCc1cccc(NC(=O)C2CCN(S(=O)(=O)c3ccc4c(c3)CCC(=O)N4)CC2)c1 as listed: -0.384 | 0.985
# O=C(NC1CCCCCC1)c1cn(-c2ccc(Cl)cc2)c(=O)c2ccccc12 as listed: -0.943 | 0.931
# O=C(Cn1nc(-c2ccc(Cl)cc2)c2ccccc2c1=O)N1CCCCC1 as listed: -0.588 | 0.949

# Going on with the list.
# Values in the order: CBX7 inh z-score | CBX7 inh
O=C(C1CCC1)N1CCc2cc(S(=O)(=O)N3CCN(c4ccccc4Cl)CC3)ccc21
    1.92 | 1.07
Cc1ccc(CNC(=O)CCN2N=C(c3ccccc3)CCC2=O)cc1
    0.16 | 1.08
CN(CCc1ccccn1)C(=O)c1cc2nc(-c3ccc(F)cc3)cc(C(F)(F)F)n2n1
    0.179 | 1.01
CC1(C)CC(=O)c2cc(C(=O)Nc3ccc(Br)cc3)c(=O)n(-c3ccccc3)c2C1
    0.0213 | 1
CCCCc1ccc(Nc2nc3cc(C)ccc3nc2NS(=O)(=O)c2ccc(Cl)cc2)cc1
    -1.59 | 0.89
Cc1ccccc1Cn1c(C(C)NC(=O)C(C)(C)C)nc2ccccc21 (configuration not stated)
    2.1 | 1.21
COc1ccc(C(=O)c2cn(Cc3ccccc3)c3ccc(C)cc3c2=O)cc1
    -1.12 | 0.683
CCOC(=O)c1cnc2ccc(Br)cc2c1Nc1ccc(C(=O)O)cc1
    -1.03 | 0.905
Cc1cc(NC(=O)CSc2nnc(Cc3ccccc3)o2)no1
    -0.207 | 0.98
O=C(Nc1nc(-c2ccncc2)cs1)c1ccc(Oc2ccccc2)cc1
    -2.4 | 0.868
CCN1C(=O)c2ccccc2S(=O)(=O)c2ccc(C(=O)N3CCCCC3)cc21
    3.19 | 1.13
COc1cccc(CN2C(=O)c3cc(C(=O)O)ccc3Sc3ccccc32)c1
    0.486 | 1.05
CC1CNc2c(Br)cc(Br)cc2NC1=O (configuration not stated)
    -2.47 | 0.867
O=C(Nc1cccc(Cl)c1)c1cccc(NC(=O)c2cccs2)c1
    -0.188 | 0.918
Cc1ccc(NCc2nc3ccccc3n2CCOc2ccccc2)c(C)c1
    -7.57 | 0.793
CC1CCN(C(=O)c2cc3sccc3n2C)CC1
    -0.67 | 0.83
Cc1ccc(C(=O)Nc2cccc(-c3nc4ncccc4o3)c2)cc1Cl
    2.24 | 1.13
COc1ccc(C(=O)c2oc3ccccc3c2NC(=O)COc2ccccc2C)cc1
    1.27 | 1.06
Cc1c(Br)cc2nc(-c3ccccc3)c(-c3ccccc3)nc2c1C
    2.44 | 1.37
Cc1ccc(C)c(CN2C(=O)c3ccccc3Sc3ccc(C(=O)NCCCOC(C)C)cc32)c1
    -3.85 | 0.852

# Arranged by SMILES length (falling): four of the compounds above
# Values in the order: CBX7 inh z-score | CBX7 inh
CC1(C)CC(=O)c2cc(C(=O)Nc3ccc(Br)cc3)c(=O)n(-c3ccccc3)c2C1
    0.0213 | 1
CN(CCc1ccccn1)C(=O)c1cc2nc(-c3ccc(F)cc3)cc(C(F)(F)F)n2n1
    0.179 | 1.01
Cc1ccc(CNC(=O)CCN2N=C(c3ccccc3)CCC2=O)cc1
    0.16 | 1.08
CC1CNc2c(Br)cc(Br)cc2NC1=O (configuration not stated)
    -2.47 | 0.867

# (more compounds)
# Values in the order: CBX7 inh z-score | CBX7 inh
CCCCc1ccc(NC(=O)CSc2nccn2-c2cc(C)cc(C)c2)cc1
    -2.11 | 0.862
CN1CCN(C(=O)Cn2nc(Cc3ccncc3)c3ccccc3c2=O)CC1
    1.03 | 1.04
CCN(CC)CCCNC(=O)c1ccc2c(c1)N=C(C)c1cc(Br)ccc1S2
    2.46 | 1.12
O=C1c2ccccc2C(Nc2cccc(Cl)c2Cl)N1c1cccnc1 (configuration not stated)
    2.66 | 1.16
Cc1ccc2c(c1)N(C(C)C(=O)NCc1ccc(F)cc1Cl)C(=O)CO2 (configuration not stated)
    -8.83 | 0.512
CCOc1ccc(-n2ccnc2SCC(=O)Nc2ccccc2OC)cc1
    1.26 | 1.16
O=C1CN(C(=O)c2cccc(Cl)c2)C(c2ccc(F)cc2)c2cc(F)ccc2N1 (configuration not stated)
    -0.138 | 0.967
Fc1ccc(Nc2cccc3nonc23)c(F)c1
    14.1 | 1.5
Cc1c(Cl)cccc1NC(=O)c1ccc2c(c1)N(C)CCS2
    -1.4 | 0.909
CCOC(=O)c1ccc(NC(=O)c2c(-c3ccccc3Cl)noc2C)cc1
    3.57 | 1.18
CC(C)(C)c1ccc2c(c1)N(CC(=O)NCC1CCCO1)C(=O)CO2 (configuration not stated)
    -0.175 | 0.99
CCCCNC(=O)c1cc(-c2ccc(OC)c(OC)c2)on1
    2.23 | 1.28
CC(C)OC(=O)Nc1ccc2c(c1)Nc1ccccc1CC2
    -5.75 | 0.81
CCOC(=O)c1sc2nc(C)nc(N3CCCCCC3)c2c1C
    4.98 | 1.1
Cc1cc(C)c(C(N)=O)c(Nc2ccc(C3CCCCC3)cc2)n1
    -4.07 | 0.901
COc1ccc(Cn2c(CCC(=O)NCCc3ccccc3)nc3cccnc32)cc1
    -0.724 | 0.962
Cc1nc2ccc(S(=O)(=O)N(C)CC(=O)NC3CCCC3)cc2s1
    0.436 | 1.01
Cc1nc2cc(-c3ccccc3)nn2c(C)c1CCC(=O)Nc1cccc(F)c1
    0.408 | 1.01
CCc1ccc(OCC(=O)N(Cc2ccc(C(C)C)cc2)C2CCS(=O)(=O)C2)cc1 (configuration not stated)
    -2.8 | 0.914
O=C(NC1CCCCC1)C(c1ccccc1)N1CCC2(CC1)OCCO2 (configuration not stated)
    1.83 | 1.04
Cc1ccccc1C(=O)Nc1ccc2nc3n(c(=O)c2c1)CCC3
    3.24 | 1.14
O=C(Nc1ccccc1C(=O)Nc1ccc(Br)cn1)c1ccccc1
    1.74 | 1.07
NC(=O)c1cc2nc(-c3ccc(Br)cc3)cc(C(F)(F)F)n2n1
    3.22 | 1.1
Cc1cc(Nc2cccc(Cl)c2)n2ncnc2n1
    -1.91 | 0.912
CCN(CC)C(=O)c1c[nH]c2ccc(S(=O)(=O)N(C)c3ccc(C(C)C)cc3)cc2c1=O
    -3.41 | 0.752
Cc1c(C(=O)Nc2cccc(C(F)(F)F)c2)oc2ccc(S(=O)(=O)N3CC(C)CC(C)C3)cc12 (configuration not stated)
    2.63 | 1.07
COc1ccc(-c2noc(-c3cc(C)cc(C)c3)n2)cc1
    0.511 | 1.05
Cc1nc(Nc2nc(-c3ccccc3)cc(=O)[nH]2)nc2ccccc12
    -0.0632 | 0.991
CN(C)S(=O)(=O)n1c(Cc2ccccc2)nc2ccccc21
    1.09 | 1.1
Cc1nnc2c(Nc3ccc(Cl)cc3)nc3nonc3n12
    1.48 | 1.08
COc1ccc(-n2nnc3c(=O)n(CC(=O)Nc4cccc(C)c4C)cnc32)cc1
    -1.93 | 0.899
COc1cccc(NC(=O)c2csc3c2CCCCC3)c1
    2.79 | 1.07
COc1ccc(NC(=O)C(NS(=O)(=O)c2ccc3nc(C)sc3c2)C(C)C)cc1 (configuration not stated)
    -1.68 | 0.892
O=C(CSc1nc2ncccc2[nH]1)Nc1ccccc1
    -0.168 | 0.985
COCCNC(=O)c1ccc2c(c1)N(Cc1ccc(Cl)cc1)C(=O)c1ccccc1S2
    0.0747 | 1.01
CCC(=O)Nc1nonc1-c1nc2ccccc2n1Cc1ccc(F)cc1
    1.42 | 1.04
CCOC(=O)c1[nH]c2c(c1CCC1CCCCC1)C(=O)CC(c1ccc(OC)cc1)C2 (configuration not stated)
    -2.49 | 0.803
Cc1ccc(S(=O)(=O)c2c[nH]c3c(F)cc(F)cc3c2=O)cc1
    1.39 | 1.04
COc1ccc(C2(C(=O)Nc3ccc(F)cc3)CCOCC2)cc1OC
    3.67 | 1.1
CCOC(=O)C1CCN(S(=O)(=O)c2ccc(NC3CCCC3)c(N)c2)CC1
    -5.14 | 0.873
O=C(NCc1ccc2c(c1)OCO2)c1ccc(CNc2c(NC3CCCC3)c(=O)c2=O)cc1
    -0.136 | 0.941
COCCNC(=O)Cn1nc(Cc2ccncc2)c2ccccc2c1=O
    -2.41 | 0.797
O=C(CN1C(=O)CCC1=O)Nc1nc(-c2ccc(Cl)cc2)cs1
    0.853 | 1.1
O=C(Nc1ccc(F)cc1)C1CCCN1S(=O)(=O)c1cccc2cccnc12 (configuration not stated)
    -0.561 | 0.983
COc1ccc(C)cc1NC(=O)CCNC(=O)Cn1ccc2ccccc2c1=O
    -0.278 | 0.988
COc1ccc2nc(NC(=O)C3CCCN(S(=O)(=O)c4cccs4)C3)sc2c1 (configuration not stated)
    -3.1 | 0.917
CCc1ccc(Nc2c3c(nc4ccc(Cl)cc24)CCC3)cc1
    0.115 | 1.08
CC1CCCCC1NC(=O)CN1C(=O)CCSc2ccccc21 (configuration not stated)
    -0.339 | 0.993
CCN(CCNC(=O)c1ccc2nc(N3CCOCC3)sc2c1)c1ccccc1
    0.295 | 1.03
COc1ccc(-c2nn(C)c3sc(C(=O)Nc4ccc(Oc5ccccc5)cc4)cc23)cc1OC
    -1.68 | 0.94
O=C(Nc1ccc(F)cc1)c1ccc(CNc2c(N3CCCCC3)c(=O)c2=O)cc1
    -0.207 | 0.91
Cc1cc(C(=O)NC(C)CCc2ccccc2)n(-c2ccccc2)n1 (configuration not stated)
    -0.179 | 0.971
Cc1cc(C(=O)CN2CCCCC2)c(C)n1-c1ccc(Cl)c(Cl)c1
    -2.28 | 0.823
COc1cc2c(cc1OC)C(c1cc3c(cc1Br)OCO3)CC(=O)N2 (configuration not stated)
    0.776 | 1.02
COC(=O)CN(c1ccc(C(C)C)cc1)S(=O)(=O)c1ccc2c(c1)n(C)c(=O)c(=O)n2C
    0.52 | 1.05
Cc1nc2ccc(S(=O)(=O)NC(C(=O)NCc3ccc(C(=O)O)cc3)C(C)C)cc2s1 (configuration not stated)
    1.59 | 1.21
Cc1ccc(N2CC(c3nc4ccccc4n3CCCOc3ccccc3)CC2=O)cc1C (configuration not stated)
    -0.368 | 0.941
COC(CNC(=O)c1cc(C)nn1-c1ccccc1)OC
    2.52 | 1.16
O=C(Nc1nc(-c2ccc(F)cc2)cs1)c1ccc(Cc2ccccc2)cc1
    0.567 | 1.03
CCN1CCN(CCCNC(=O)CCC(=O)Nc2ccc3nc(N4CCCCC4)cc(C)c3c2)CC1
    1.27 | 1.07

# Additional records
# Values in the order: CBX7 inh z-score | CBX7 inh
COc1ccccc1-n1c(-c2ccc(C)cc2)cc2c1CC(C)(C)CC2=O
    -6.77* | 0.317*
COc1ccc(CCNC(=O)c2ccc3c(c2)N(Cc2ccccc2)CCS3)cc1OC
    -0.353 | 0.734
CN(C)CCNC(=O)CN1C(=O)COc2ccc(S(=O)(=O)N3CCOCC3)cc21
    -1.2 | 0.95
Cc1ccc(NC(=O)c2ccc(Nc3nnc(C)c4ccccc34)cc2)cc1
    1.21 | 1.03
Cc1cc(C)c(NC(=O)CSc2ccc3nnc(-c4ccccc4)n3n2)c(C)c1
    0.51 | 1.04
Cc1onc(-c2ccccc2Cl)c1C(=O)Nc1nc(-c2ccccc2)cs1
    -0.181 | 0.846
Cc1cccc(N2CCN(c3ccc4nnc(-c5ccccc5)n4n3)CC2C)c1 (configuration not stated)
    0.868 | 1.04
Cc1ccc(C(=O)N2CC(=O)Nc3ccc(Cl)cc3C2c2ccc(F)cc2)cc1 (configuration not stated)
    1.19 | 1.12
CCc1cccc(NS(=O)(=O)c2cc(Br)cc3c2N(C(=O)C2CC2)CC3)c1
    -1.11 | 0.977
COCCNC(=O)CSc1nc(-c2ccc(C)cc2)[nH]c1-c1ccc(OC)cc1
    -2.67 | 0.837

# Screens (PubChem BioAssay)

# These rows are one share of the data (hit frequency here may not be typical).
